# Assay outcomes: PubChem, National Center for Advancing Translational Sciences (NCATS)
# VACV mCherry inh: inhibitors of vaccinia virus infection (mCherry reporter signal). Vaccinia virus mCherry reporter infection, fluorescence; about a quarter of the inactives have no number. Potency, µM (top dose mostly 36.5 µM), without a hit: top-dose activity change, negative = inhibition, actives largely listed as inhibitors. actives 0.63% (n = 310,000). AID 720579; active = well fitted inhibition curve with a large enough effect; inconclusive = small, poorly fitted or top-dose-only effect; inactive = no such curve, though single readings can be large or run the other way; tested in A549 cells; also: nearly all actives have a fitted effect of over 35% in size; inactives centre near -10
# VACV Venus inh: vaccinia inhibition (Venus reporter); AID 720580; Potency, µM (titrated, usually from 36.5 µM), for inactives: at the highest dose activity change, negative = inhibition, usual class: inhibitors; Vaccinia virus Venus reporter expression, fluorescence; actives 0.46% (n = 330,000); active means well fitted inhibition curve with a large enough effect; inconclusive means small, poorly fitted or top-dose-only effect; inactive means no such curve, though single readings can be large or run the other way; tested in A549 cells; also: nearly all actives have a fitted effect of over 30% in size; inactives centre near -10
# * = called active by the depositor; i = inactive; ? = inconclusive; nt = not tested or not shown; & = joins results of further samples; [ ] = dose if it differs, or a comment. % is scaled to controls: 0 for no effect and ±100 for the full control effect; potency is read from the fitted curve at half-maximal effect.
item	SMILES	VACV mCherry inh	VACV Venus inh
1	Nc1ccc(S(=O)(=O)Nc2nc(-c3ccccc3)cc(-c3ccccc3)n2)cc1	-6%	-10%
2	Oc1cccc(/C=N/N2CCN(C3c4ccccc4-c4ccccc43)CC2)c1	?	-5%
3	CCOc1ccc(S(=O)(=O)N(CC)CC(=O)N2CCCC2)cc1C	-25%	-16%
4	Cc1nnc(NC(=O)C(C)Sc2nnc(-c3ccco3)n2C(C)C)s1 (stereo not given)	-10%	7%
5	Cn1c(C(=O)NCc2cccs2)cc2oc3ccccc3c21	10µM*	-2%
6	COc1ccc(-c2cc(NC=O)c3ncc(-c4cccc(C(=O)NCCN(C)C)c4)n3c2)cc1	9%	-16%
7	O=c1cc(-c2ccccc2)oc2cc(O)c(O)c(O)c12	-4%&-23%&14%	-7%&-14%&-11%
8	Cc1cc2n(n1)CCCN2C(=O)Nc1cccc(C)c1C	-16%	-16%
9	CC1(C)CC(=O)C(N=Nc2ccc(S(=O)(=O)N3CCCCCC3)cc2)=C(O)C1	-13%	-9%
10	COc1ccc(-c2c(C#N)c(SCC(=O)Nc3ccc(C)c(C)c3)nc(C)c2C(=O)Nc2ccccc2)cc1OC	-2%	-11%
11	O=C(NCc1ccc(F)cc1)c1cccnc1C(=O)O	i	-5%
12	NS(=O)(=O)c1ccc(NCc2cnc3ccccc3n2)cc1	-8%	4%
13	O=C(Nc1cccnc1)c1cc2nc(C3CC3)cc(C(F)(F)F)n2n1	nt	?
14	CCC(C)N(C(=O)Cn1nnc(-c2ccc(F)cc2)n1)C1CCS(=O)(=O)C1 (stereo not given)	-1%	-9%
15	O=C(c1ccccc1Br)N(Cc1ccco1)Cc1ccco1	5%	-4%
16	COC(=O)C1CCCN1C(=O)c1cccs1 (stereo not given)	nt	-8%
17	CCOC(=O)[C@@H]1[C@H]2COc3ccccc3[C@H]2N2C(=O)N(c3cccc(C)c3)C(=O)[C@]12C	-2%	-3%
18	CCOc1ccc(NC(=O)CN(C)C(=O)c2ccccc2SCc2c(C)noc2C)cc1OCC	-5%	-14%
19	CC(/C=N/Nc1nncc(=O)[nH]1)=C\c1ccccc1	-12%	-1%
20	O=c1[nH]cnc2c1ncn2Cc1ccc([N+](=O)[O-])cc1	i	-19%
21	O=c1oc2ccccc2c(Nc2cccc(O)c2)c1[N+](=O)[O-]	?	-23%
22	Cc1ccc(C)c(SCC(=O)N(C)C2CCS(=O)(=O)C2)c1 (stereo not given)	i	-6%
23	CC(Oc1ccccc1)C(=O)Nc1nnc(C2CCCCC2)s1 (stereo not given)	-19%	-7%
24	O=S(=O)(c1ccc(-c2ccon2)s1)N1CCCC1	-13%	5%
25	Nc1nc(N)c2nc(-c3ccccc3)c(N)nc2n1	?	?
26	O=C(CCCc1ccccc1)Nc1nncs1	nt	-16%
27	CCCN1CCN(CCCNC(=O)c2cc3c(=O)[nH]c4ccc(C)cc4c3s2)CC1	?	-29%
28	O=C(Nc1ccc(F)cc1)c1nc[nH]c1C(=O)Nc1ccc([N+](=O)[O-])cc1	-1%	-22%
29	COc1cccc(NC(=O)N2CCCC2C(=O)NC23CC4CC(CC(C4)C2)C3)c1 (stereo not given)	-7%	-2%
30	O=C(c1ccc(S(=O)(=O)N2CCCCCC2)cc1)N1CCN(c2ccccc2F)CC1	-8%	-13%
31	CCCCNC(=O)C1(C)CCN1C(=O)c1ccc(F)c(C)c1 (stereo not given)	26%	-4%
32	CCC(NS(=O)(=O)c1ccc(C)cc1)C(=O)Nc1ccc(NC(C)=O)cc1 (stereo not given)	1%	7%
33	CCOC(=O)c1c(N)sc2c1CCC(CC)C2 (stereo not given)	nt	-27%
34	COc1ccccc1CN(Cc1nc2ccccc2c(=O)[nH]1)S(=O)(=O)c1ccc(C)cc1	-27%	-7%
35	CC(=O)Nc1ccc(S(=O)(=O)N2CC3(C)CC2CC(C)(C)C3)cc1 (stereo not given)	-4%	-7%
36	CCC(C)[C@H](NC(=O)N1CC(=O)Nc2ccccc21)C(=O)N1CCC[C@@H]1C(=O)O (stereo not given in full)	3%	-5%
37	CCOC(=O)c1c(C)oc2ccc(N(C(=O)c3ccncc3)S(=O)(=O)c3ccc(F)cc3C)cc12	-19%	-13%
38	CCS(=O)(=O)CCSC(=N)N	-51%	?
39	COc1ccc(NC(=O)C2CCN(C(=O)c3cccs3)CC2)cc1	-2%	-3%
40	CCOc1cc(N2CCOCC2)c(OCC)cc1NC(=O)COC(=O)CCc1c[nH]c2ccccc12	nt	-8%
41	Cc1ccc(Cn2ccnc2C(=O)Nc2ccccc2)cc1	i	-12%
42	COC(=O)c1ccccc1C(=O)NCC1Cc2cc(-c3nc(C)cnc3C)ccc2O1 (stereo not given)	-3%	-1%
43	CCOC(=O)c1ccc(N=C2S/C(=C\c3cc(C)n(-c4cccnc4)c3C)C(=O)N2C)cc1	nt	-14%
44	Cc1ccc(NC(=O)c2cc(-c3ccccc3)nn2-c2ccccc2)c(Br)c1	-10%	6%
45	Cc1[nH]c(=S)[nH]c(=O)c1CCOc1ccccc1	?	-23%
46	O=[N+]([O-])c1ccc(OCc2cnc(Cl)s2)cc1	i	-11%
47	O=C(Nc1ccc2c(c1)OCCO2)C(CCc1ccccc1)N1CCN(C/C=C/c2ccccc2)CC1 (stereo not given)	-19%	-12%
48	O=C(c1cc2ccccc2cc1O)N1CCN(c2ccc([N+](=O)[O-])cc2)CC1	?	-30%

# The closing four records of the section above lead into the next.
item	structure	VACV mCherry inh	VACV Venus inh
45	Cc1[nH]c(=S)[nH]c(=O)c1CCOc1ccccc1	?	-23%
46	O=[N+]([O-])c1ccc(OCc2cnc(Cl)s2)cc1	i	-11%
47	O=C(Nc1ccc2c(c1)OCCO2)C(CCc1ccccc1)N1CCN(C/C=C/c2ccccc2)CC1 (stereo not given)	-19%	-12%
48	O=C(c1cc2ccccc2cc1O)N1CCN(c2ccc([N+](=O)[O-])cc2)CC1	?	-30%
49	NCCCC[C@H](N)c1nnc([C@H](CCC(=O)O)NC(=O)C2CCNCC2)o1	i	-6%
50	O=C(O)CCn1nnc(-c2ccccc2)n1	6%	-1%
51	CC1(C)CC(=O)C=C(c2ccccc2-c2ccc(S(C)(=O)=O)cc2)C1=O	i	-10%
52	COc1cccc(C2C(C#N)=C(N)OC3=C2C(=O)CC(c2ccco2)C3)c1OCc1ccc(F)cc1 (stereo not given)	-28%	-11%
53	CCCNC(=O)c1cc(C2CCCN(S(=O)(=O)c3ccccc3)C2)on1 (stereo not given)	-1%	-13%
54	CCn1nc(C(=O)OCC(=O)N(CC(C)C)c2c(N)n(Cc3ccccc3)c(=O)[nH]c2=O)c2ccccc2c1=O	-12%	-18%
55	COc1ccc(NC(=O)CSc2nc3ccsc3c(=O)n2CCC(=O)O)c(OC)c1	-17%	-1%
56	Cc1nnc(Cc2ccccc2)c2n[nH]c(C)c12	i	-25%
57	CCOc1ccc(-n2cc(C(=O)N3CCCCCC3)c3cc(OC)c(OC)cc3c2=O)cc1	-19%	-11%
58	COc1ccc(/C=C/C(=O)CC(=O)/C=C/c2cccc(O)c2OC)cc1O	-19%[60.7 µM]	-11%[60.7 µM]
59	O=C(/C=C/c1ccc(-c2ccccc2[N+](=O)[O-])o1)c1ccco1	-15%	11%
60	CC(C)N(C)CCOC(=O)c1ccccc1Br	-23%	-17%
61	C/C(CCc1oc2ccc(Br)cc2c1-c1ccc(C)o1)=N/O	-5%	-20%
62	COc1ccc(CNC(=O)C2CC(=O)N(c3ccc(OCC(=O)N4C(C)CCCC4C)cc3)C2)cc1 (stereo not given)	nt	-15%
63	COc1ccc(OC)c(S(=O)(=O)NC2CCSc3ccccc32)c1 (stereo not given)	-7%	-4%
64	COC(=O)[C@]12CCCCC=C1N(Cc1ccccc1)C(=O)[C@H](CC(=O)N1CCC(c3ccccc3)CC1)C2	i	-16%
65	COc1ccc(CNC(=O)C2CC(=O)N(C3CCCC3)C2)cc1 (stereo not given)	-13%	-2%
66	COc1ccc(-c2nnn(CC(=O)N3CCOCC3)n2)cc1	-4%	-2%
67	O=C(Nc1c2c(nn1-c1ccc(Cl)cc1)CS(=O)(=O)C2)c1cccc(F)c1	-7%	5%
68	CC(Oc1ccccc1)C(=O)N[C@@H]1C(=O)N2[C@@H]1SC(C)(C)[C@@H]2C(=O)OCc1ccccc1 (stereo not given in full)	-5%	-16%
69	CC(=O)c1c(C)n(-c2cccc(Cl)c2)c2ccc(O)cc12	?	?
70	COc1cccc(CNC(=O)CCC2CCCN(Cc3ccc(OC(F)F)cc3)C2)c1 (stereo not given)	?	-11%
71	COC(=O)c1ccccc1NC(=O)c1ccnn1C	i	3%
72	O=C(NC(=S)NNC(=O)c1ccccc1O)c1cccc([N+](=O)[O-])c1	?	3%
73	COCCN(CCOC)S(=O)(=O)NC[C@H]1O[C@@H](n2cnc3c(N)ncnc32)[C@H](O)[C@@H]1O	i	0%
74	N#Cc1c2c(c(-c3ccco3)[nH]c1=O)CCCC2	-14%	-3%
75	Nc1nc2nccc(-c3ccc(Cl)cc3)n2n1	nt	-29%
76	CN(NS(=O)(=O)c1ccc(Cl)cc1)c1nc(C(F)(F)F)nc2ccccc12	-2%	-3%
77	Cc1cc(C)c(C)c(S(=O)(=O)NCc2ccc(C(=O)N3CCCC3)cc2)c1C	-19%	-8%
78	C=CCSc1nnc(CC(OC)OC)n1-c1ccccc1	-3%	-20%
79	COc1ccc(CC(=O)N2CCc3cc(OC)c(OC)cc3C2COc2ccc(F)cc2)cc1 (stereo not given)	-2%	-5%
80	CCOC(=O)Cn1c(=O)oc2cc(S(=O)(=O)NCc3ccc(F)cc3)ccc21	6%	-7%
81	O=C(Nc1ccccc1N1CCN(C(=O)c2ccccc2)CC1)c1ccc([N+](=O)[O-])o1	11µM*	?
82	Cc1cc(C)c(NC(=O)CSc2nccn2Cc2ccco2)c(C)c1	i	-11%
83	CCOC(=O)Nc1nc(-c2ccc(Cl)cc2Cl)cs1	-19%	-7%
84	COc1cc(CN2CCN(S(=O)(=O)c3ccc(F)cc3)CC2)cc(OC)c1OC	-3%	-11%&-6%

# Five compounds drawn at random from those above:
item	structure	VACV mCherry inh	VACV Venus inh
76	CN(NS(=O)(=O)c1ccc(Cl)cc1)c1nc(C(F)(F)F)nc2ccccc12	-2%	-3%
73	COCCN(CCOC)S(=O)(=O)NC[C@H]1O[C@@H](n2cnc3c(N)ncnc32)[C@H](O)[C@@H]1O	i	0%
82	Cc1cc(C)c(NC(=O)CSc2nccn2Cc2ccco2)c(C)c1	i	-11%
84	COc1cc(CN2CCN(S(=O)(=O)c3ccc(F)cc3)CC2)cc(OC)c1OC	-3%	-11%&-6%
74	N#Cc1c2c(c(-c3ccco3)[nH]c1=O)CCCC2	-14%	-3%

# (further entries)
item	structure	VACV mCherry inh	VACV Venus inh
85	O=C(Nc1ncccn1)c1cc(-c2cccc(Br)c2)nc2ccccc12	-29%	-24%
86	CCC(=O)n1nc(-c2ccc(Cl)cc2)nc1NCc1ccccc1	-17%	-25%
87	CCc1cccc(C)c1NC(=O)COC(=O)C1CCN(S(=O)(=O)c2ccccc2)CC1	-1%	-16%
88	CC1=C(C(=O)Nc2ccc(C)cc2C)C(c2ccc[nH]2)n2ncnc2N1 (stereo not given)	-10%	-9%
89	CC1(C)CC(=O)C2=C(C1)N(c1ccc(F)cc1)C(=O)C2(O)C(F)(F)F (stereo not given)	-7%	-2%
90	CCOC(=O)c1cnn(CCOC(=O)c2cccc(F)c2)c1NC(=O)c1cccc(F)c1	i	-2%
91	Nc1c2c(nc3ccn(Cc4ccccc4)c(=O)c13)CCC2	nt	-26%
92	Cc1cccc2c1NC(=O)C2(O)N1CCCC(C)C1 (stereo not given)	i	-17%
93	CCOC(=O)c1c(C)[nH]c(C)c1C(=O)COC(=O)c1ccccc1O	i	-5%
94	Cc1ccc(C(=O)NCC(c2ccco2)S(=O)(=O)c2ccccc2)cc1C (stereo not given)	2%	-12%
95	c1csc(-c2ccc3nncn3c2)c1	3%	13%
96	O=C(COC(=O)CCCc1c[nH]c2ccccc12)Nc1ccc2c(c1)OCO2	-16%	-11%
97	CCOc1cc(NC(=O)c2ccco2)c(OCC)cc1NC(=O)Cc1cccc(OC)c1	nt	-21%
98	COC(=O)c1ccccc1NC(=O)CN(C)Cc1ccccc1	i	-14%
99	CCOC(=O)C1CCCN(Cc2cccc(Oc3ccccc3)c2)C1 (stereo not given)	i	-6%
100	N#Cc1ccccc1Cn1cc(/C=N/Nc2ccc([N+](=O)[O-])cn2)c2ccccc21	-5%	1%
101	CCOC(=O)c1ccc(-c2ccc(C3Nc4ccccc4C(=O)N3O)o2)cc1 (stereo not given)	?	-16%
102	O=C(NNC(=O)c1ccccc1-n1cccc1)c1ccc(Cl)cc1	nt	7%
103	COc1ccc(S(=O)(=O)N(CC(=O)NC2CC2)c2ccc(C)cc2)cc1	-4%	-8%
104	COc1ccc(NS(=O)(=O)c2cccc3cccnc23)cc1OC	i	-5%
105	Cc1ccc(C)c(NC(=O)C2CCN(S(=O)(=O)c3ccc4c(c3)NC(=O)CO4)CC2)c1	i[7.34 µM]	8%[7.34 µM]
106	Nc1ccc(C(=O)N/N=C/c2sc(N3CCOCC3)nc2-c2ccccc2)cc1	-13%	-8%
107	COc1ccc(OC)c(N/C=C/C(=C(C#N)C#N)N(C)C)c1	-21%	-15%
108	N#CC1=C(SCC(=O)NC2CC2)NC(=O)C(C#N)C12CCCCC2 (stereo not given)	i	-4%
109	O=C(Nc1ccc(Br)cc1F)C1CCN(c2nnc(-n3cccc3)s2)CC1	-7%	-6%
110	CCCc1sc(N)nc1-c1ccc(C)cc1	-16%	?
111	O=c1[nH]c(=S)[nH]cc1Oc1ccc(Cl)cc1	i	-10%
